# YopH inh = YopH (Yersinia) phosphatase inhibition; fluorescence Ex485/Em525; inhibition, %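 (about 10 µM by stock and volumes)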; hit rate 0.16% among 140,000; AID 898;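 active = inhibition of 50% or more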;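 also: controls were vehicle for no effect and minimum signal wells for full effect; inactives centre near -20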
# RecA intein inh = blocks M. tuberculosis RecA intein splicing. hit rate 0.75% among 290,000. inhibition, %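 (about 9 µM by stock and volumes)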. cell-free RecA intein splicing, fluorescence. AID 2221. P9WHJ3; in the data active = inhibition above about 30%; inconclusive = no clear call, values can overlap the other calls;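 also: 0% = vehicle wells and 100% = reference inhibitor control wells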
# Target sequence (P9WHJ3 whole entry, looked up): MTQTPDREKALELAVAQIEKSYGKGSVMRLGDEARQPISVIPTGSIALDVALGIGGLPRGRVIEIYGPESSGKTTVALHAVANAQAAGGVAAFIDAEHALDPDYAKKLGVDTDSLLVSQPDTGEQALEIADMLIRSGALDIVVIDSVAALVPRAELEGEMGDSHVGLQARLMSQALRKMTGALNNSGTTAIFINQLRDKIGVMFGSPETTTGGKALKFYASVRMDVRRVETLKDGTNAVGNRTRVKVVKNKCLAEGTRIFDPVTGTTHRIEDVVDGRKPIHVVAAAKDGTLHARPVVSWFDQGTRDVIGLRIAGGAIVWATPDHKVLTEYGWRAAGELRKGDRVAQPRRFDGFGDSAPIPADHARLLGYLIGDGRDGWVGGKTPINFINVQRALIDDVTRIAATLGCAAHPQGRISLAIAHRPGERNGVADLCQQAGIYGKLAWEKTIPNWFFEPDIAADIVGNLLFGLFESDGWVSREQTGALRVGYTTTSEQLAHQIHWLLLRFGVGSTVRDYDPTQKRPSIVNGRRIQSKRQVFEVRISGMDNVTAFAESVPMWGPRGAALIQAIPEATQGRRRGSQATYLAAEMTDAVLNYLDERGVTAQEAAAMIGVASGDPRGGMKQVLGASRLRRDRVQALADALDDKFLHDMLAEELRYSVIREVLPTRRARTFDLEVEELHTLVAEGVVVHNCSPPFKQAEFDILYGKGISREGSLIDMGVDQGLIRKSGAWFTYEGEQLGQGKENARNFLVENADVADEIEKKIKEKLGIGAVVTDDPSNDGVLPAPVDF
# Mtb H37Rv = M. tuberculosis H37Rv growth inhibitors, H37Rv strain (AID 1626); M. tuberculosis H37Rv growth inhibition; higher % means a stronger effect; inhibition, % at 10 µM, or IC50 in µM where a hit was titrated; hit rate 0.95% among 220,000;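 active = confirmed in a dose series; inconclusive = inhibition above 80% but not taken into the dose series; inactive = below 80% or under 30% at every dose of the series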;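 also: bacteria incubated seven days before Alamar blue readout; 0% = bacteria only wells and 100% = bacteria with antibiotic wells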
# Arbovirus inh = antivirals against arbovirus infection; inhibition, % at 10 µM; arbovirus infection cell-based antiviral screen; hit rate 0.37% among 200,000; AID 1251;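 active = inhibition from about 30%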;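 also: bluetongue infection of BSR cells; cell survival read as ATP light after 72 h; 0% = infected wells without compound and 100% = uninfected wells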
# Mtb betalactam = beta-lactam sensitization of Mtb H37Rv; inhibition, % at 25 µM; M. tuberculosis H37Rv growth with meropenem, percent inhibition; hits of this screen are not shown here; AID 434955; hit rate 0.27% among 330,000;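 active = about 74% or more and at least 40 points above the plate without the antibiotic, then above 30% in a dose series; inconclusive = first-round hits that could not be retested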;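 also: growth measured after seven days incubation then overnight dye step; 0% = bacteria only wells and 100% = bacteria with antibiotic; twin plates without the antibiotic show which effects depend on it; some results filed as inactive read as strong as hits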
# An asterisk follows results filed as active; ? = inconclusive; . = no result given.
mol	YopH inh	RecA intein inh	Mtb H37Rv	Arbovirus inh	Mtb betalactam
CC(C)OCCCNC(=O)CN1C(=O)CC(C)(C)S(=O)(=O)c2ccccc21	-10.6	1.2	-5.5%	13.3	-0.4
Cn1c2ccccc2c2cc(/C=N/NC(=O)c3cc(O)ccc3O)ccc21	.	-2.6	.	.	0.0
CCCCCC(=O)Nc1cc(N(C)C)nc2ccccc12	2.3	-1.9	-5.9%	14.9	-14.2
Cc1cc(-c2nnnn2-c2ccc(C(F)(F)F)cc2)no1	.	2.8	-13.2%	.	-4.3
O=C(Nc1nccs1)C1CC(=O)N(c2ccccc2)C1 (centres undefined)	.	0.2	.	.	-1.3
O=C(COC(=O)C12CC3CC(CC(C3)C1)C2)N1CCN(S(=O)(=O)c2ccccc2)CC1	-10.2	-2.4	-6.9%	3.5	4.9
CSc1ncc(CO)n1Cc1ccccc1	.	-0.2	-4.1%	2.7	-11.4
CC1CC(c2ccccc2)n2nc(NC(=O)c3ccco3)nc2N1 (centres undefined)	-24.6	-2.2	4.3%	-3.7	-2.0
CN(C)CCN(C(=O)c1cccc2ccccc12)c1nc2cc3c(cc2s1)OCO3	.	3.7	.	.	8.8
COc1ccc(C)c2sc(N(CCCN(C)C)C(=O)c3ccc4c(c3)OCCO4)nc12	.	-1.7	.	.	-3.6
COc1cc(NC(=O)Cn2ccsc2=N)c(C)cc1[N+](=O)[O-]	.	3.0	2.7%	-1.9	0.6
CN(C(=O)C1CCCN(S(=O)(=O)c2cccc([N+](=O)[O-])c2)C1)C1CCS(=O)(=O)C1 (centres undefined)	.	0.5	-3.4%	1.7	-5.2
COc1ccccc1NC(=O)N1CCCC1C(=O)NC1CCCCC1 (centres undefined)	-8.5	2.6	-5.7%	2.0	-3.3
O=C(O)c1ccccc1C(=O)Nc1ccc(S(=O)(=O)NC2CCCCC2)cc1	-27.3	6.1	-10.7%	6.1	-5.3
COc1ccc(C(=O)NCCc2cc3ccc(C)c(C)c3[nH]c2=O)cc1OC	.	0.2	-3.2%	16.8	-2.2
CCn1c(C)cc(/C=C2\NC(=O)N(Cc3ccc(Cl)cc3)C2=O)c1C	-28.1	-3.1	6.3%	12.3	10.4
CC(C)n1cnnc1SCC(=O)Nc1ccc(N2CCCCC2)cc1	.	-5.9	.	.	-2.6
CCC(=O)Nc1ccccc1C(=O)OCC(=O)Nc1ccc(S(N)(=O)=O)cc1	-3.5	4.7	1.9%	5.7	-1.4
C/C(=N\N(c1ccccc1)c1ccccc1)c1ccc(N)cc1	.	2.0	.	.	-8.2
CN(C(=O)COC(=O)CNS(=O)(=O)/C=C/c1ccccc1)C1CCS(=O)(=O)C1 (centres undefined)	-29.1	0.2	-9.4%	6.3	1.4
COC(=O)C1=C(C)NC(=O)NC1c1ccccc1Cl (centres undefined)	.	0.5	.	.	5.2
CCCCOC(=O)Nc1cccc(Cl)c1C	-7.3	-7.9	3.0%	-13.4	0.5
COCC(=O)n1nc(-c2ccccc2)nc1NCc1ccc(N(C)C)cc1	.	-5.3	-3.1%	-1.4	3.0
N#C/C(=C1/CCCCCN1)c1nc2ccccc2s1	-53.3	-4.1	-5.5%	-1.2	6.2
Cc1ccc(NC(=O)Cn2c(=O)cnc3ccccc32)cc1S(=O)(=O)N(C)C	-18.5	-1.2	3.6%	2.1	-0.4
C=C(C)CNC(=S)N/N=C/c1c(F)cccc1F	.	-0.1	1.1%	7.1	2.5
Cn1c(SCC(=O)C(C)(C)C)nnc1-c1cccnc1	-40.8	-1.9	-6.5%	7.5	5.8
Cc1ccc(S(=O)(=O)N(C)C)cc1NC(=O)C1CCCC1	-15.1	-1.9	-10.9%	-14.2	-4.9
O=C(NCCC1CCCCN1S(=O)(=O)c1ccc(Cl)cc1)C(=O)NCc1ccco1 (centres undefined)	.	-4.9	.	.	4.0
O=C(Cc1ccsc1)N1CCN(S(=O)(=O)c2cc(C(F)(F)F)cc(C(F)(F)F)c2)CC1	.	0.6	.	.	-0.9

# Going on with the list:
mol	YopH inh	RecA intein inh	Mtb H37Rv	Arbovirus inh	Mtb betalactam
NC(=O)CC1C(=O)N(c2ccc(F)cc2)C(=O)N1NC(=O)CCc1ccccc1 (centres undefined)	.	1.1	0.7%	5.7	-4.0
CCONc1ncnc2nonc12	-24.7	.	-2.9%	3.4	-1.1
CCCCOc1ccc(C(=O)N(CC)CC(=O)NCc2cccs2)cc1	.	3.4	.	.	1.7
CCOC(=O)C1CCCN(S(=O)(=O)Cc2ccc(Cl)cc2)C1 (centres undefined)	.	-0.1	.	.	3.1
CCOC(=O)c1[nH]ncc1CN1CCN(Cc2ccc(C)cc2)C(CCO)C1 (centres undefined)	.	-1.6	0.5%	2.3	-4.6
COc1cc(CN2CCCC(N3CCN(c4ccccc4C)CC3)C2)cc(Cl)c1O (centres undefined)	.	0.4	.	.	-4.9
Cn1c(=O)[nH]c(=O)c2c1nc(N(CCO)Cc1ccccc1)n2CCCc1ccccc1	-44.0	0.2	.	-3.0	-0.1
COc1cc(CCN2C(=O)c3cccc4cccc(c34)C2=O)c(S(=O)(=O)NCCCO)cc1OC	-33.4	1.9	-10.6%	0.9	-11.7
O=C(/C=C/c1ccccc1)N1CCN(C(=O)c2ccco2)CC1	-3.1	-2.6	-8.7%	-4.0	-9.1
CCSc1ccc([C@@H]2[C@H]3C(=O)N(CC)C(=O)[C@H]3[C@]3(C(=O)OC)CCCCN23)cc1	.	5.4	.	.	-1.6
CCc1ccccc1N(CC(=O)NCc1ccco1)C(=O)CCC(=O)Nc1nccs1	.	-2.9	.	.	-5.2
COc1ccc(/C=N\Nc2ccccn2)c(OC)c1	.	-1.4	.	.	-9.2
O=C(NNC(=O)[C@@H]1CCCC[C@@H]1C(=O)O)c1cccs1	-22.4	1.3	-0.2%	2.2	4.3
O=C(Nc1ccc2c(c1)OCCO2)c1cccs1	-44.2	2.5	-0.1%	-13.8	-0.4
COC(=O)c1c(C)oc2ccc(N(C(=O)Oc3ccccc3)S(=O)(=O)c3ccc(Cl)c([N+](=O)[O-])c3)cc12	-25.9	5.3	2.6%	-9.3	-1.5
CN1CCN(Cc2cccc(Oc3ccc(Cl)cc3)c2)CC1	-21.2	0.5	11.1%	-16.1	0.9
CCCCN1CN(S(=O)(=O)c2cccs2)c2nc3ccccc3nc21	9.2	0.9	10.4%	-0.1	.
Cc1cccc(N=Cc2cc3c(cc2[N+](=O)[O-])OCO3)c1	-10.8	-0.7	-8.5%	-1.6	61.5
COc1ccc(-c2cc(C(=O)Nc3cnn(Cc4ccccc4C)c3)no2)cc1OC	-46.1	0.4	4.5%	-10.1	6.8
Cc1nn(C)c(C)c1CN(C)C(=O)c1nn2c(c1Br)NC(c1cccs1)CC2C(F)(F)F (centres undefined)	-7.5	0.7	0.0%	-1.3	0.6
CCCCCC1CC(=O)N(Cc2ccc(Cl)cc2)C(=O)N1 (centres undefined)	-33.1	-1.5	6.7%	-4.7	-4.0
CC(C)(C)c1cc(C(C)(C)C)cc(S(=O)(=O)CCc2ccccn2)c1	-2.3	-3.6	2.7%	2.4	10.8
COc1ccc(CCN(C(=O)C(F)(F)F)C(C(=O)NC2CCCC2)c2cccs2)cc1OC (centres undefined)	-16.2	-1.4	-1.3%	-1.9	-0.9
COc1ccc(N2C(=O)CC(SCCc3nc4ccccc4[nH]3)C2=O)cc1 (centres undefined)	-44.3	3.9	-5.9%	2.5	?
Cc1[nH]n(-c2cccc(Cl)c2)c(=O)c1-c1ccc(Cl)cc1	-18.6	8.5	13.5%	20.9	28.7
Cc1noc(/C=C/N(C)C)c1S(=O)(=O)N1CCN(c2ccc(F)cc2)CC1	.	-5.0	.	.	3.5
CCCCC(=Nc1ccc(N)cc1)C1=C(O)C(C(=O)OC)C(C)(C)CC1=O (centres undefined)	-29.4	-5.0	-2.0%	-10.9	41.7
COc1ccccc1NC(=O)N1CCC(c2nc3cc(C)c(C)cc3[nH]2)CC1	-46.0	6.4	-0.6%	-14.6	91.7
CN(CC(=O)NCc1ccncc1)S(=O)(=O)c1ccc(Br)cc1	.	1.1	.	.	?
CC(=O)Nc1ccc(-c2csc(NC(=O)C3CC(=O)N(c4ccc5c(c4)OCCO5)C3)n2)cc1 (centres undefined)	.	1.8	-2.0%	.	22.1

# (cont.)
mol	YopH inh	RecA intein inh	Mtb H37Rv	Arbovirus inh	Mtb betalactam
O=C(N/N=C/c1c[nH]c2ccccc12)c1ccn(Cc2ccc(Cl)cc2)n1	-17.1	8.9	-0.1%	5.2	3.5
CCN1C(=O)/C(=C/c2ccc(C)s2)SC1=Nc1ccc(OC)cc1	4.6	-3.5	16.7%	-9.3	-1.6
CS(=O)(=O)N1CCN(c2ccc(NC(=O)Cc3ccccc3)cc2)CC1	-13.8	-1.7	7.5%	1.6	-2.1
Cc1ccc(C(NC(=O)c2ccccc2)C(Cl)(Cl)Cl)cc1 (centres undefined)	-15.6	-0.8	5.2%	7.0	7.8
Cc1ccnc2c1ccc1ccccc12	.	-0.5	.	.	-2.9
CSc1ccc(CNc2ccc(Cl)cc2)cc1	-13.5	2.4	-4.0%	-2.7	0.3
Cc1ccc(-c2csc(NC(=O)C3CC=CCC3C(=O)O)c2C(=O)OC(C)C)cc1 (centres undefined)	-2.1	8.8	.	46.9*	-1.0
COc1cccc(-c2nnn(CC(=O)N3CCC(C)CC3)n2)c1	.	-0.3	.	.	-5.7
CC1CC(=O)N(C)c2cc([N+](=O)[O-])ccc2N1 (centres undefined)	.	-1.4	-2.6%	0.1	-5.4
CC(NC(=O)COc1ccccc1)C(=O)NC1=NCCS1 (centres undefined)	16.9	1.7	-9.6%	3.9	-9.0
Cc1ccc(C(=O)OCC(=O)NNC(=O)c2ccc([N+](=O)[O-])cc2)o1	.	-7.0	.	.	6.8
CCOC(=O)c1sc2nc(N3CCOCC3)c3c(c2c1N)CCCC3	-2.0	-5.7	1.1%	-4.2	4.5
CC(=O)Nc1ccc(NC(=O)Cn2c(=O)n(-c3ccc(F)cc3)c(=O)c3oc4ccccc4c32)cc1	.	-0.8	2.1%	2.1	-2.0
CCOC(=O)CNC(=O)c1cc2c(=O)[nH]c3ccc(C)cc3c2s1	.	-0.4	.	.	7.0
CN(C)S(=O)(=O)c1cccc(NC(=S)N/N=C/c2ccco2)c1	.	-0.4	-2.0%	.	-1.7
CCN(CC)S(=O)(=O)c1ccc2nc(SC)sc2c1	7.1	2.8	8.4%	-5.4	-0.6
Cn1cccc1/C=N/n1c(-c2ccccc2)n[nH]c1=S	-19.3	-4.2	3.5%	-0.2	-8.9
COc1ccccc1N1CCN(S(=O)(=O)c2cn(C)c(=O)n(C)c2=O)CC1	-49.0	-1.6	5.7%	-5.0	0.4
COc1ccc2cc3cc(C(=O)NCCN4CCc5ccccc5C4)sc3nc2c1	-13.1	-7.3	6.9%	3.7	12.5
O=S(=O)(Nc1nc2ccccc2nc1N1CCc2ccccc2C1)c1ccc(Cl)cc1	-30.7	-25.8	5.1%	4.8	36.2
N/C(=N\OC(=O)CCCN1C(=O)c2ccccc2C1=O)c1ccc(Br)cc1	-41.1	-2.0	-7.9%	.	-9.8
CCc1nnc(NC(=O)C2c3ccccc3Oc3ccccc32)s1	-12.3	0.4	1.0%	-5.4	-11.6
CCN1C(=O)N[C@@H](c2cccs2)C(C(=O)OC)=C1C	.	1.1	-2.1%	.	11.5
COC(=O)CSc1nc2cc(C)ccc2cc1C#N	-15.2	-2.5	-2.1%	-0.8	1.4
Cc1oc2c(c1C(=O)Nc1ccc(C(=O)O)cc1)CCCC2	-19.8	0.9	-1.0%	7.6	-13.3
CCC(C)(C)NC(=O)C(c1ccccc1Cl)N(C(=O)CCC(=O)Nc1cc(C)on1)c1ccc(NC(C)=O)cc1 (centres undefined)	.	-0.1	.	.	-2.0
COc1ccccc1Nc1nc(N)nc(CN2CCc3ccccc3C2)n1	34.1	1.7	?	3.9	93.7
CCOc1ccccc1OCC(=O)OCc1csc(CC(=O)Nc2ccccc2C)n1	.	-3.1	.	.	0.7
CCOc1ccccc1OCCCC(=O)N(CC)CC(=O)Nc1ccc(NC(C)=O)cc1	.	2.3	.	.	0.0
COCCCNC(=O)/C(C#N)=C/c1c(N2CCN(C)CC2)nc2ccccn2c1=O	.	-62.7	.	.	-7.9
O=C(N/N=C\c1ccc(O)c([N+](=O)[O-])c1)c1ccccc1-n1cccc1	-36.7	-1.6	-5.9%	5.9	0.0
CC(=O)Nc1ccc(S(=O)(=O)NCCc2ccc(F)cc2)cc1	-34.5	-2.7	-6.8%	4.2	-1.2
O=C(Cc1ccccc1)Nc1ccc(C(=O)Nc2ccccc2C(=O)O)cc1	.	0.8	.	.	10.7

# Source: PubChem BioAssay (several laboratories)

# Only part of the results is shown; the hit share may differ from the screen's.
